Assay outcomes as filed in PubChem.
Beta apoptosis = beta cell apoptosis inhibition; INS-1E cytokine-induced death, ATP luminescence, 48 h; percent of positive-control rescue, neutral wells zero; protection from apoptosis, % (no concentration beside the values); hit rate 0.8% among 300,000;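 active = all replicates at 75% or more, or half of them and the mean; inconclusive = half reach 75% but not the mean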;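 note: 0% = cytokine-treated negative control wells and 100% = positive control rescue; higher means more ATP so stronger rescue from cytokine killing; wells of about 40 µL received 100 nL stock; the first replicate is given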
T cruzi inh = T. cruzi replication inhibition; T. cruzi beta-gal in NIH3T3, luminescence, 90 h; inhibition, % (no concentration beside the values); hit rate 1.4% among 300,000; AID 1885;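 active = mean inhibition across valid replicates above about 55%, limit read from the data; inconclusive = mean below that limit but half or more replicates reach it; inactive = mean below it, under half of replicates reach it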;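 note: signal also drops with host cell toxicity which is not excluded here; 0% = plate median of DMSO wells and 100% = zero luminescence signal; higher percent means less beta-gal luminescence so fewer parasites; stock transfer was 50 nL into about 50 µL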
RanGTP-Impb inh = inhibitors of RanGTP-importin-beta interaction, primary screen, biochemical, FRET, CFP-Ran, YFP-importin-beta, homogeneous | cell-free CFP-Ran/YFP-importin-beta FRET ratio | inhibition, % (concentration not given with the values) | hit rate 1.1% among 300,000 | AID 2216;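 active = most replicates above 15%; inconclusive = exactly half above 15%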;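 note: 0% = DMSO wells and 100% = Ran loaded with GDP instead of GTP; wells of about 40 µL received 100 nL stock; the first replicate is given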
Calb FLC = affects C. albicans growth with fluconazole | C. albicans CaCi-2 (fluconazole-resistant clinical isolate) + fluconazole, Alamar Blue growth, 48 h | growth inhibition, % (test concentration not listed) | hit rate 0.57% among 300,000 | AID 1979;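 active = most replicates above 75%; inconclusive = exactly half above 75%; inactive = most below 75%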;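 note: all wells also contain fluconazole at 8 µg/ml as a sub-toxic cotreatment; 0% = median of DMSO wells and 100% = median of geldanamycin control wells; wells of about 8 µL received 7.5 nL stock; the first replicate is given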
* marks the source's active call; other numbers are inactive results; ? = inconclusive; . = no result given. An excerpt. The share of hits here may be higher or lower than overall.

SMILES	Beta apoptosis	T cruzi inh	RanGTP-Impb inh	Calb FLC
Fc1ccc(C(CCNCc2ccccn2)c2ccc(Cl)cc2)cc1 (configuration not stated)	.	-7	0.3	-33
CCCCC(c1nnnn1CCOC)N1CCN(c2cccc(OC)c2)CC1 (configuration not stated)	.	13	5.2	28
COC(=O)[C@@H]1CC[C@H](C)[C@@H](c2ccc(C)cc2)N1C(=O)c1ccc(/C=N/OC[C@@H](O)[C@H]2O[C@@H]3OC(C)(C)O[C@@H]3[C@H]2O)cc1	.	28	-1.4	-4
CCOc1ccccc1-n1c(SCC(N)=O)nnc1-c1ccccc1	.	-11	-1.7	0
C(#Cc1ccc(C#CCN2CCCC2)cc1)CN1CCCC1	.	23	0.5	-3
COc1cc(O)c(C(CC(=O)N2CCOCC2)c2cc(OC)c(OC)c(OC)c2)c(OC)c1 (configuration not stated)	.	-13	?	-3
Cc1ccc(CNC(=O)CN2CCN(Cc3ccc(Cl)cc3)C2=O)cc1	.	-2	0.8	-1
CCCCc1c(C)c(C#N)c2nc3ccccc3n2c1Cl	.	41	6.3	9
O=C1CC(c2cccc(Br)c2)C2=C(CCCC2=O)N1 (configuration not stated)	.	-7	6.4	1
Cc1ccc(C)c(N(CC(=O)NC2CCCC2)C(=O)CCCC(=O)Nc2ccccn2)c1	.	-5	-0.7	-1
CC(C)CC(NC(=O)C1CCC(C)CC1)C(=O)NCc1cccnc1 (configuration not stated)	.	-16	5.7	-4
CC(C)n1nnnc1C(c1ccc(F)cc1)N1CCN(C2CCCC2)CC1 (configuration not stated)	.	-14	-3.3	-7
O=C(Cc1cccs1)Nc1nnc(Cc2ccc(F)cc2)s1	.	-2	3.8	-4
CCOC(=O)c1sc2nc(CC(=O)OC)nc(NCc3ccco3)c2c1C	.	11	12	3
CCOC(=O)N1CC=C2C(C#N)=C(N)C(C#N)(C#N)[C@H](c3cccs3)C2C1 (some centres not stated)	.	5	-2.5	7
CCN1CCN(c2cc(SC(C)C)nc(-c3ccc(OC)cc3)n2)CC1	.	41	-0.6	-11
COc1ccccc1N1CCN(C(c2ccc(F)cc2)c2nnnn2C(C)C)CC1 (configuration not stated)	.	15	1.4	-3
CCOc1ccc(NC(=O)CSc2nc3cccnc3n2CC)cc1	.	14	0.6	5
COc1ccccc1/C=C/C(=O)c1ccc(Cl)cc1	.	18	-2.6	-14
Cc1ccsc1C(=O)OCc1csc(-c2ccccc2)n1	.	-14	-3.4	-5
Cc1ncc(CO)c(/C=N/NC(=O)c2cc(O)c(O)c(O)c2)c1O	.	18	7.8	?
FC(F)(F)c1cc(-c2cccs2)nc(-n2cc(Cl)cn2)n1	.	4	6.0	10
COc1cccc(CN2C(=O)c3ccccc3C2C(=O)NCC2CCCO2)c1 (configuration not stated)	.	-6	1.0	-17
COc1ccc(-c2cc(C(F)(F)F)nc(N3CCN(c4ccc(F)cc4)CC3)n2)cc1OC	.	1	-3.7	7
O=C(O)C1CC=CCC1C(=O)Nc1ccc(S(=O)(=O)N2CCCc3ccccc32)cc1 (configuration not stated)	.	-7	0.2	-7
O=C(NC1CCCCC1)NC1CC2CCC(C1)N2C(=O)NC1CCCCC1 (configuration not stated)	.	-8	2.2	15
Cc1ccc(C(C#N)N2CCOCC2)cc1 (configuration not stated)	.	3	-4.3	?
CCOc1ccc2nc(N3CCOCC3)nc(C)c2c1	.	6	58*	8
Cc1nc(N)sc1-c1csc(Nc2ccccn2)n1	.	-21	3.8	-9
CCOC(=O)C1=C(C)N(c2ccccc2)C(=O)C1	.	4	0.7	18
Cc1ccc(C(=O)NC2CCN(C(=O)NC3CCCCC3)CC2)cc1	.	2	-2.9	-2
CCOc1ccccc1C(=O)NCc1ccco1	.	1	-1.3	2
CSC1=N/C(=C\c2ccc3c(c2)OCO3)C(=O)S1	.	-8	-4.8	2
NC(=O)NC(=O)COC(=O)c1ccccc1Oc1ccccc1	.	-11	-3.5	-11
Cc1ccc(C(=O)N2CCN(C)CC2)cc1S(=O)(=O)N1CCCCC1	.	-8	2.8	-3
O=S(=O)(c1ccccc1)N1CCSC1c1ccco1 (configuration not stated)	.	-2	2.2	0
O=C(CSC1=NC(=O)C(Cc2ccccc2)C(=O)N1)Nc1ncccn1 (configuration not stated)	.	-10	2.2	-1
N#CC(C(=O)NC1CCCCC1)c1nc2ccccc2nc1N1CCN(c2ccc(F)cc2)CC1 (configuration not stated)	.	18	-0.2	-9
C=CCN(CC=C)C(=O)C1CC(=O)N(c2ccc(Br)cc2)C1 (configuration not stated)	.	1	-3.1	-13
COc1cc2c(C(=O)O)c(C)n(CC(C)C)c2c2ccccc12	.	-9	-1.2	-5

Given comma-delimited: entries from further up.
SMILES,Beta apoptosis,T cruzi inh,RanGTP-Impb inh,Calb FLC
COc1ccc(-c2cc(C(F)(F)F)nc(N3CCN(c4ccc(F)cc4)CC3)n2)cc1OC,.,1,-3.7,7
O=C(O)C1CC=CCC1C(=O)Nc1ccc(S(=O)(=O)N2CCCc3ccccc32)cc1 (configuration not stated),.,-7,0.2,-7
O=C(NC1CCCCC1)NC1CC2CCC(C1)N2C(=O)NC1CCCCC1 (configuration not stated),.,-8,2.2,15
Cc1ccc(C(C#N)N2CCOCC2)cc1 (configuration not stated),.,3,-4.3,?
CCOc1ccc2nc(N3CCOCC3)nc(C)c2c1,.,6,58*,8
Cc1nc(N)sc1-c1csc(Nc2ccccn2)n1,.,-21,3.8,-9
CCOC(=O)C1=C(C)N(c2ccccc2)C(=O)C1,.,4,0.7,18
Cc1ccc(C(=O)NC2CCN(C(=O)NC3CCCCC3)CC2)cc1,.,2,-2.9,-2
CCOc1ccccc1C(=O)NCc1ccco1,.,1,-1.3,2
CSC1=N/C(=C\c2ccc3c(c2)OCO3)C(=O)S1,.,-8,-4.8,2
NC(=O)NC(=O)COC(=O)c1ccccc1Oc1ccccc1,.,-11,-3.5,-11
Cc1ccc(C(=O)N2CCN(C)CC2)cc1S(=O)(=O)N1CCCCC1,.,-8,2.8,-3
O=S(=O)(c1ccccc1)N1CCSC1c1ccco1 (configuration not stated),.,-2,2.2,0
O=C(CSC1=NC(=O)C(Cc2ccccc2)C(=O)N1)Nc1ncccn1 (configuration not stated),.,-10,2.2,-1
N#CC(C(=O)NC1CCCCC1)c1nc2ccccc2nc1N1CCN(c2ccc(F)cc2)CC1 (configuration not stated),.,18,-0.2,-9
C=CCN(CC=C)C(=O)C1CC(=O)N(c2ccc(Br)cc2)C1 (configuration not stated),.,1,-3.1,-13
COc1cc2c(C(=O)O)c(C)n(CC(C)C)c2c2ccccc12,.,-9,-1.2,-5

The listing continues.
SMILES	Beta apoptosis	T cruzi inh	RanGTP-Impb inh	Calb FLC
Cn1cnnc1SCC(=O)N(Cc1ccc2c(c1)OCO2)C1(C(=O)NC2CCCCC2)CCCC1	.	1	?	-9
Cc1cc2ncn(/N=C/c3cc(Br)ccc3O)c2cc1C	.	-7	0.6	24
O=C(CCn1nc(-c2ccc(Cl)cc2)ccc1=O)N1CCN(c2ccccn2)CC1	.	1	-0.5	7
O=C(CCC(=O)N1CCCc2ccccc21)N1CCN(S(=O)(=O)c2ccccc2)CC1	.	3	0.4	5
CC(Nc1ccc(Br)cn1)c1cc(Cl)ccc1O (configuration not stated)	.	20	-2.2	-2
CN(C)c1ccc(NC(=O)CSCc2nc3c(nnn3Cc3ccc(F)cc3)c(=O)[nH]2)cc1	.	-8	0.2	?
Cc1ccc(-c2n[nH]c(=S)n2C)cc1	.	-14	1.0	-1
C=CCSc1nc2ccccc2n1S(=O)(=O)c1ccc(Cl)cc1	.	-18	?	-4
COc1cccc(C(c2nnnn2Cc2ccc(F)cc2)N2CCC(C(N)=O)CC2)c1OC (configuration not stated)	.	-16	1.6	13
Cc1cc(C)cc(N(CC(=O)NCc2ccco2)C(=O)CCC(=O)Nc2ccccn2)c1	.	-5	-3.1	2
O=C(c1cc(-c2ccc3c(c2)OCO3)on1)N1CCN(c2ccc(F)cc2)CC1	.	-7	1.5	-3
CC(C)OC(=O)CSc1nc2cccnc2n1-c1ccc(F)cc1	.	-4	-0.3	5
O=C(NCCN1CCOCC1)NC1(C(F)(F)F)Oc2ccccc2O1	.	-3	0.4	-6
CCOc1ccc(N2CC(C(=O)NCCc3ccc(OC)c(OC)c3)CC2=O)cc1 (configuration not stated)	.	-5	2.5	-8
COc1ccc2cc(CN(CCO)C(=O)c3ccc(Br)cc3)c(=O)[nH]c2c1	.	5	-0.3	1
Cc1ccc(C(=O)Nc2cnc3ccccn3c2=O)cc1	.	3	6.8	6
O=C(Nc1ccccc1C(=O)N1CCCCCC1)c1cccc(S(=O)(=O)N2CCOCC2)c1	.	2	3.4	5
CCc1nnc(NC(=O)CSc2nnc(-c3ccccc3O)n2CC)s1	.	-4	5.0	-15
Cc1ccn2c(-c3csc(NCc4ccco4)n3)c(C)nc2c1	.	2	-2.3	12
COc1ccccc1-c1c(NC(=O)c2ccco2)n(-c2ccccc2)nc(C)c1=O	.	-16	-3.6	-5
OC(CN1CCN(Cc2ccc3c(c2)OCO3)CC1)c1c[nH]c2ccccc12 (configuration not stated)	.	26	-2.8	3
O=C(COc1ccc(S(=O)(=O)NC2CCCCC2)cc1Cl)N1CCN(c2ccccc2)CC1	.	11	0.3	-4
CCOCCCNC(=O)/C(C#N)=C/c1cc(Br)c(O)c(Br)c1	.	31	38*	32
CC(C)COc1ccc(C(=O)N/C(=C\c2cccc([N+](=O)[O-])c2)C(=O)OC(C)C)cc1	.	22	-0.2	2
COc1nnc(-c2ccc(C(=O)N3C[C@@H]4C[C@H](C3)c3cccc(=O)n3C4)cc2)c2ccccc12	.	-1	4.1	3
O=S(=O)(NC1c2cccc3cccc(c23)C1N1CCN(CCO)CC1)c1ccccc1 (configuration not stated)	.	30	-3.7	-8
CCCOc1nc(N)c(C#N)c(-c2ccccc2F)c1C#N	.	8	1.6	-1
CCCn1c2c(c(O)c(C(=O)Nc3nc(C)cs3)c1=O)CCCC2	.	-14	-1.9	-10
CC(C)Cn1c(N)c(S(=O)(=O)c2cccs2)c2nc3ccccc3nc21	.	10	6.1	-1
Cc1ccc(S(=O)(=O)N(CC(=O)NCc2ccco2)Cc2ccccc2F)cc1	.	33	2.1	-9
CCOc1cc(S(=O)(=O)N(Cc2ccccc2)Cc2ccccc2)c(OCC)cc1-n1cnnn1	.	44	1.7	12
CC(C)(C)n1nnnc1C(c1ccccc1F)N1CCN(C2CCCC2)CC1 (configuration not stated)	.	2	6.4	-3
COc1ccc2c(c1)C(=O)OC2CC(=O)O (configuration not stated)	.	-4	-1.2	?
NC(=O)C1(N2CCCCC2)CCN(c2nc(-c3ccccc3)cs2)CC1	.	18	-9.1	1
CC(=O)OCC1OC(OC2C[C@]3(C)C(CC(O)C4C([C@](C)(CCC=C(C)C)OC5OC(CO)C(O)C(O)C5O)CC[C@]43C)[C@@]3(C)CCC(O)C(C)(C)C23)C(O[C@@H]2OC(C)C(O)C(O)C2O)C(O)C1O (some centres not stated)	-1	.	.	.
O=C(c1nn2cccnc2c1Cl)N1CCN(c2ccccc2)CC1	-3	.	.	.
Cc1cc(N2CCOCC2)n2nc(C)c(-c3ccccc3)c2n1	-2	.	.	.
COC(=O)c1ccc(C(NC(=O)OCc2ccccc2)/C(F)=C/[C@@H](C)C(=O)NCc2ccc(-c3ccccc3)cc2)cc1 (some centres not stated)	-2	.	.	.
O=C1CC(=O)CC(c2ccco2)C1	5	.	.	.
CCC(CO)N=CC1=C(O)C(C(=O)c2ccccc2)CCC1=O (configuration not stated)	-5	.	.	.
C/C(=C1/C(=O)N(c2ccc([N+](=O)[O-])cc2)N=C1c1ccccc1)N(C)C	27	.	.	.
CC1=C(C)/C(=N\OS(=O)(=O)c2ccc(C)cc2)C=CC1=O	106*	.	.	.
CNC(CC(=O)c1ccc([N+](=O)[O-])cc1)C(Cl)(Cl)Cl (configuration not stated)	4	.	.	.
